# Assay outcomes from PubChem.
# BJeLR viability = MLPCN primary cell-based screen for lethality selective to Ras in HRASV12 cells; BJeLR (HRASV12) viability, CellTiter-Glo ATP luminescence, 48 h; reference of the scale not given here; inhibition, % (concentration not given with the values); 300,000 tested, 0.17% active; AID 1554, 2009;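 active = replicate mean above 50%; inconclusive = above 50% but judged a plate artefact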;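 also: 50 nL library stock added to about 25 µL; numbers are from one replicate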
# Autofluor counter = counter-screen for toxin protease inhibitors: compound fluorescence; compound autofluorescence counterscreen, microsphere flow cytometry; active compounds read high; 360,000 tested, 3.1% active; fluorescence intensity (no concentration beside the values);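 active = at least 3 SD above the mean of all compounds, about 16000 in these data; inconclusive = too few beads counted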;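 also: 100 nL of 1 mM stock went into each well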
# RN4220 kill = growth inhibition of S. aureus RN4220, primary screen, OD600; AID 1259311, 2017; inhibition, % (no concentration beside the values); 330,000 tested, 0.33% active; 16 h;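 active = z-score of -3 or lower and OD600 up to 0.18 on both plates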;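 also: plate controls were untreated cells for no effect and reference antibiotic for full effect; stock transfer was 100 nL into about 80 µL; one replicate is shown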
# Mtb hypoxia inh = PubChem AID 1159583; M. tuberculosis hypoxia-regulated fluorescent reporter, fluorescence; fluorescence inhibition, % (concentration not given with the values); 300,000 tested, 0.1% active;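 active = 35 to 45% if threefold the growth effect, above 45% if 1.5-fold the growth effect; inactive = the rest, general growth blockers included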;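 also: wells of about 50 µL received 100 nL stock; 0% = vehicle wells and 100% = reference inhibitor wells; whole bacteria with a GFP reporter of the hypoxia response; strong numbers were not always called active; many hits fall short of the cut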
# PrP UTR inh = inhibition of PrP 5' UTR reporter expression; 340,000 tested, 0.35% active; inhibition, % (concentration not given with the values); cell-based PrP 5' UTR mRNA reporter, plate reader;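 active = every replicate at 50% or more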;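 also: 0 = median of the neutral control wells; tested in H4 reporter cells; numbers are from one replicate; inactives centre near -14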
# ugtP null kill = growth inhibition of ugtP-null S. aureus, primary screen, RN4220 ugtP deletion, OD600. 16 h; some inactives read as strong as hits. growth inhibition, % (test concentration not listed). 330,000 tested, 0.54% active. AID 1259309, 2017;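 active = z-score under -3 and OD600 up to 0.15 on both plates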;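 also: plate controls were untreated wells for no effect and antibiotic for full effect; wells of about 80 µL received 100 nL stock; the first replicate is given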
# Mtb hypoxia inh growth = further read-out of Mtb hypoxia inh, marked with its call; growth inhibition, %; measured here: M. tuberculosis growth (absorbance);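 0% = vehicle and 100% = reference antibiotic; read after six days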
# Active calls of the source: *; ? = inconclusive; nt = not tested or not shown; & = joins results of further samples.
No.	Molecule	BJeLR viability	Autofluor counter	RN4220 kill	Mtb hypoxia inh	Mtb hypoxia inh growth	PrP UTR inh	ugtP null kill
1	CCOC(=O)C1=C(CC)Nc2ccccc2N=C1NC(=O)c1cc(S(=O)(=O)N(C)C)ccc1Cl	5	2566	-3.0	-2	17	6	-7
2	CCOC(=O)C1CCN(C(=O)CCc2nnc3ccc(NCc4ccco4)nn23)CC1	-9	3236	1.5	1	5	2	2
3	CCN1CCCc2cc(CN(CCN3CCOCC3)C(=S)Nc3ccccc3C)ccc21	9	nt	2.0	2	-8	-4	-1
4	CC(Sc1ccc(Cl)cc1)C(=O)NCC1CCCO1 (configuration not stated)	8	2178	-0.6	nt	nt	-16	4
5	Cc1ccc(C)c(NP(=O)(Oc2ccccc2)Oc2ccccc2)c1	1	3219	2.6	-4	-5	-5	-4
6	CC(=O)N[C@@H](Cc1c[nH]c2ccccc12)C(=O)OCC(=O)Nc1cc(C)on1	nt	3708	3.7	6	6	-10	3
7	Cc1ccc(-c2noc(CN(C)C(=O)c3ccc(Br)o3)n2)cc1	0	5734	-0.5	0	3	-12	1
8	COc1cccc(C2=CC(=O)CC(c3ccc4c(c3)OCO4)C2)c1OC (configuration not stated)	nt	nt	4.8	7	13	nt	11
9	Cc1cc(C)c(S(=O)(=O)NC2CC(C)(C)NC(C)(C)C2)cc1C	7	4073	nt	nt	nt	-5	nt
10	COc1ccc(-c2nc(CN3CCN(Cc4cccc(F)c4)CC3)c(C)o2)cc1	1	?	1.8	9	0	-15	3
11	CCc1cc2c(=O)c(-c3nc4ccccc4n3C)c(COCC(=O)O)oc2cc1O	4	10963	6.8	14	7	-14	0
12	Cc1[nH]nc(-c2ccc(O)cc2O)c1-c1ccc(Cl)cc1	11	4386	2.3	1	6	-5	-12
13	CN(C)Cc1cnc2ccc(Cl)cn12	-3	?	4.2	2	12	-17	1
14	COc1cc(C)ccc1OCCOCCOc1c(C)cc(C)cc1Br	-1	4644	0.4	nt	nt	-13	26
15	CCCCOC(=O)c1ccc(N/C(=N\S(=O)(=O)c2ccccc2)c2ccccc2)cc1	4	9969	nt	nt	nt	-13	nt
16	COc1ccc(C2=NS(=O)(=O)N(C)C(C(=O)NCc3ccc(F)cc3)=C2)cc1OC	9	4381	8.5	9	5	-2	16
17	COc1cc(/C=C/C(=O)N[C@@H](Cc2c[nH]c3ccccc23)C(=O)O)ccc1O	9	4089	1.5	12	5	-15	5
18	COc1cc(OC)cc(-c2nc(-c3ccccc3)no2)c1	5	3366	-5.1	nt	nt	-46	4
19	O=C(N/N=C/c1ccccc1C(=O)O)c1cc(-c2ccc3c4c(cccc24)CC3)n[nH]1	-21	2261	nt	nt	nt	-14	nt
20	CCOC(=O)C1=c2sc(=Cc3ccncc3)c(=O)n2C(N)=C(C(=O)OC)C1c1ccncc1 (configuration not stated)	nt	nt	3.2	-8	-4	nt	-4
21	COc1cc(NC(=O)CC(C)=NNC(=O)c2cccs2)c(OC)cc1Cl	nt	nt	3.3	-5	1	nt	2
22	O=c1[nH]c2ccc(NC(=S)NCCc3ccccc3)cc2[nH]1	-9	5035	6.2	-2	-4	-22	-5
23	CCCC(=O)Nc1ccc(Cl)c(NC(=O)c2cccnc2)c1	11	10353	8.2	0	4	-48	17
24	CCCC(=O)Nc1ccc(Cl)c(NC(=O)c2ccc([N+](=O)[O-])cc2Cl)c1	9	2364	-3.3	-2	5	7	-7
25	CC(Cn1nnc2ccccc21)=NOC(=O)c1ccccc1C	nt	nt	3.7	7	4	nt	5
26	Cc1ccc(C)n1CCN1CCN(CC(=O)Nc2ccc(S(N)(=O)=O)cc2)CC1	16	4941	-0.5	nt	nt	-26	6
27	O=C(CCN1C(=O)/C(=C\c2cccc(Br)c2)SC1=S)N1CCOCC1	22	5517	1.3	17	3	-8	3
28	Cc1cc2ccc(C)c(C)c2nc1SCC(=O)c1cccs1	-2	5123	-0.2	6	12	-11	20
29	Cc1noc(C)c1S(=O)(=O)N(C)CC1Oc2ccc(NC(=O)C3CC3)cc2C(=O)N(C(C)CO)CC1C (configuration not stated)	nt	nt	4.5	1	3	nt	-7
30	CCOC(=O)c1cnc(SCC(=O)OCC(=O)NC2CCS(=O)(=O)C2)nc1N (configuration not stated)	-2	4488	-3.1	0	0	-11	-3
31	Cc1ccccc1OCCCN1CCOCC1	7	3547	1.2	7	2	-9	4
32	CSc1nnc2c3ccccc3n(Cc3ccccc3)c2n1	1	3774	-0.8	nt	nt	-10	5
33	Cn1c(N2CCN(c3ccccn3)CC2)nc2c1c(=O)n(Cc1ccccc1Cl)c(=O)n2C	15	3506	-1.5	11	0	-4	9
34	Cc1ccc(/C=N/NC(=O)Cc2ccc(Cl)cc2)s1	-1	4064	nt	nt	nt	0	nt
35	Fc1ccccc1-c1n[nH]c(=S)n1N=Cc1c[nH]c2ccccc12	nt	nt	2.6	-7	7	nt	-22
36	CCn1cc(C2=NC(CCSC)CO2)c2ccccc21 (configuration not stated)	-5	4393	-0.7	15	9	-10	0
37	O=C(Nc1ccc(C(F)(F)F)cc1)c1ccccc1	nt	4173	2.0	15	19	-33	4
38	CCCn1c(N)c(N(CCOC)C(=O)CSc2c(Cl)cccc2Cl)c(=O)[nH]c1=O	nt	3013	3.0	-2	-2	3	0
39	Cc1ccc(CNC(=O)CSc2nnc3c(n2)[nH]c2ccccc23)cc1	-5	3485	-0.2	-1	3	-31	14
40	O=[N+]([O-])c1cc([N+](=O)[O-])c2cc3ccccc3nc2c1	1	3125	nt	nt	nt	-43	nt
41	Cc1sc2nc(CN3CCN(c4ccc(O)cc4)CC3)[nH]c(=O)c2c1C	22	5218	3.7	1	4	-8	1
42	COc1ccccc1N(CCC#N)C(=O)COC(=O)CCC(=O)c1ccc(F)cc1	nt	nt	5.9	-4	-6	-16	15
43	COc1ccc(NC=C(C2OC(=O)c3ccccc32)[N+](=O)[O-])cc1 (configuration not stated)	nt	nt	6.5	4	10	nt	-5
44	O=C(CSCc1ccccc1Cl)Nc1ccc(C(=O)O)cc1	-3	3285	6.1	16	10	-7	6
45	O=C(OCC(=O)N1CCN(S(=O)(=O)c2ccccc2)CC1)c1ccc([N+](=O)[O-])o1	5	4546	9.1	3	0	-14	1
46	Cc1cc(C)c(-c2cc(NC(=O)CSc3nncn3C)n(-c3ccccc3)n2)cc1C	-1	2839	-23	24	-21	-23	0
47	COCCN1CC(=O)N2C(c3cccc(OC)c3)c3[nH]c4ccccc4c3C[C@H]2C1=O (some centres not stated)	-6	4135	-2.4	15	9	-33	-1
48	Cc1ccc(C=NNC(=O)CCc2n[nH]c(=O)[nH]c2=O)o1	nt	nt	2.9	8	0	nt	-1
49	Cc1onc(-c2c(Cl)cccc2Cl)c1C(=O)NC(C)(C)CO	2	3354	-1.2	1	2	-8	3
50	O=S(=O)(NCC(c1ccco1)N1CCc2ccccc2C1)c1ccc(Br)cc1 (configuration not stated)	6	nt	1.7	2	3	-4	-14
51	CC(C)NC(=O)c1cc2c(C(F)(F)F)nn(C)c2s1	-1	2653	5.3	nt	nt	-9	-3
52	Cc1ccc(CNC(=O)CCn2cc(-c3ccc(F)cc3)nc2-c2ccncc2)cc1	nt	3285	0.0	-1	10	-28	-12
53	CN(C)CCCNCCCNC(=O)/C(=N\O)c1ccccn1	4	22814*	nt	nt	nt	6	nt
54	COC(=O)C1=C(c2ccc(-c3ccccc3)c(F)c2)CC2CCC1N2C(=O)NCc1ccc(F)cc1 (configuration not stated)	nt	nt	0.4	0	9	nt	-10
55	O=C(Nc1cccc([N+](=O)[O-])c1)Nc1cccs1	10	4494	56	11	7	-17	19
56	CC(NC(=O)C(NC(=O)C1CCCN1C(=O)OC(C)(C)C)C(C)C)C(N)=O (configuration not stated)	-3	5973	2.0	6	8	-11	2
57	CCOC(=O)c1ccc(S(=O)(=O)N2CCN(C(=O)c3cc(=O)c4ccccc4o3)CC2)cc1	-2	2656	6.2	3	2	-18	2
58	COC(=O)c1sccc1NC(=O)c1cc(OC)c(OC)c(OC)c1	-3	8938	5.5	4	2	-25	0
59	COc1ccc(C(=O)C[n+]2cn(C(F)F)c3ccccc32)c(F)c1	7	3853	0.5	-5	-8	-34	1
60	CC(C)C(=O)N1CCN(c2ccc(NC(=S)NC(=O)c3cc4ccccc4o3)cc2)CC1	-3	4596	4.0	nt	nt	-18	66

# (listing goes on)
No.	Molecule	BJeLR viability	Autofluor counter	RN4220 kill	Mtb hypoxia inh	Mtb hypoxia inh growth	PrP UTR inh	ugtP null kill
61	CC(=O)c1ccc(N2CCC(c3cc(-c4ccc(Cl)cc4)n[nH]3)CC2)c([N+](=O)[O-])c1	8	9582	4.4	-2	1	-23	-10
62	COc1cccc(C(=O)Nc2sc3c(c2C#N)CCN(C(C)=O)C3)c1	nt	2724	8.6	4	-1	-30	1
63	Cc1ccccc1CC(=O)NC1CCCc2ccccc21 (configuration not stated)	-8	4410	4.5	14	5	-28	3
64	N/C(=N\OC(=O)c1cc(Cl)ccc1Cl)c1ccccn1	21	2556	0.4	-4	-1	12	3
65	CC/C(O)=C1\C(=O)CCCC1=NCc1nc2ccccc2[nH]1	-2	3586	10	19	4	2	-64
66	CC(C)(C)OC(=O)N1CCN(c2ccc([N+](=O)[O-])cc2)CC1	-6	4656	2.2	4	10	37	3
67	COc1ccc(Cl)cc1NC(=O)c1cccc(-n2cnnn2)c1	nt	5961	2.0	6	3	-6	4
68	O=C(O)CSc1nnnn1-c1ccccc1	-4	10335	1.9	6	7	-11	5
69	CCOC(=O)C(=O)NN=Cc1cccc(Br)c1	nt	nt	3.9	4	6	nt	3
70	O=C(Oc1ccc(Br)cc1C(=S)N1CCCCC1)c1cc([N+](=O)[O-])cc([N+](=O)[O-])c1	1	3767	nt	nt	nt	-9	nt
71	CCNC(=S)N1CCC(NC(=O)C2CCCCC2)CC1	2	4400	0.4	5	8	-1	-1
72	O=C(Nc1ccc(F)c(F)c1)c1ccccc1-c1ccccc1	7	2538	8.3	8	-3	-13	1
73	O=C(CN1CCCCCCC1)NN=Cc1ccc(F)c(F)c1	nt	nt	1.7	10	4	nt	4
74	Cc1ccc2nc(-c3ccc(NC(=O)COC(=O)c4cncc(Br)c4)cc3)sc2c1	14	2330	1.9	8	-1	-19	3
75	Cc1ccc(NC(=O)C(C)OC(=O)c2ccc(Cl)nc2)cc1S(=O)(=O)N1CCOCC1 (configuration not stated)	13	?	-1.7	1	9	-14	-8
76	C[C@@H]1O[C@@H](O[C@H]2[C@H](Oc3cc(O)c4c(c3)OC(c3ccc(O)cc3)CC4=O)O[C@H](CO)[C@@H](O)[C@@H]2O)[C@H](O)[C@H](O)[C@H]1O (some centres not stated)	-1	4365	nt	nt	nt	-15	nt
77	Cc1cccc(/C(N)=N/OC(=O)CCC2CCCCC2)c1	-12	2337	-7.4	-2	9	-51	21
78	Cc1ccc(NNC(=O)c2c(F)cccc2Cl)cc1C	5	5164	4.1	14	5	-10	61
79	CC(=O)NS(=O)(=O)c1ccc2c(c1)Cc1cc(S(=O)(=O)NC(C)=O)ccc1-2	-11	nt	3.3	-8	-13	0	4
80	OCCC1CC(O)C(O)[C@]2(OCCCc3ccccc32)O1 (some centres not stated)	nt	nt	15&4.1	5&-11	-1&2	nt	3&4
81	Clc1nc2ccccc2nc1-c1ccccc1	5	3874	9.0	14	2	-14	-1
82	Nc1ccccc1SCC(=O)Nc1nccs1	28	5816	14	17	9	-19	-3
83	COc1ccccc1NS(=O)(=O)c1ccc(S(=O)(=O)N2CCOCC2)cc1	-2	4394	0.3	4	8	-14	3
84	O=C(O)c1ccc(Cn2c(SCc3cc(=O)n4cc(Br)ccc4n3)nc3ccsc3c2=O)cc1	2	nt	17	5	14	nt	26
85	O=C(NCc1ccco1)/C(=C\c1cccs1)NC(=O)c1cccs1	-1	4053	5.0	-3	3	-28	3
86	COC(=O)c1ccccc1SC(CC(=O)c1ccccc1)c1ccc(F)cc1 (configuration not stated)	2	5678	8.6	nt	nt	-39	24
87	C=CCn1c(COc2cccc3ccc(C)nc23)nnc1SCC(=O)OC	2	3427	3.5	nt	nt	7	2

# Reformatted as labelled records: 2 of the compounds above
86) COC(=O)c1ccccc1SC(CC(=O)c1ccccc1)c1ccc(F)cc1 (configuration not stated)
- BJeLR viability: 2
- Autofluor counter: 5678
- RN4220 kill: 8.6
- Mtb hypoxia inh: nt
- Mtb hypoxia inh growth: nt
- PrP UTR inh: -39
- ugtP null kill: 24
84) O=C(O)c1ccc(Cn2c(SCc3cc(=O)n4cc(Br)ccc4n3)nc3ccsc3c2=O)cc1
- BJeLR viability: 2
- Autofluor counter: nt
- RN4220 kill: 17
- Mtb hypoxia inh: 5
- Mtb hypoxia inh growth: 14
- PrP UTR inh: nt
- ugtP null kill: 26
